From PubChem
HSD17B inhib: blocks hydroxysteroid 17-beta dehydrogenase activity. Q99714. recombinant HSD17B10, NADH fluorescence kinetic; many of its hits are not listed in these tables. Potency, µM (titrated, usually from 57.1 µM), for inactives: at the top dose activity change, negative = inhibition, usual class: inhibitors. 7.6% of 75,000 active. AID 893; active = well fitted inhibition curve with a large enough effect; inconclusive = small, poorly fitted or top-dose-only effect; inactive = no such curve, though single readings can be large or run the other way;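 note: the protocol describes HADH2 (HSD17B10) and not the HSD17B4 of the title; nearly all actives have a fitted effect of over 70% in size; most hits overshoot -100% by far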
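Activity followed as NADH fluorescence increase (ex 360, em 450 nm) every 30 seconds for 4 min, using final 90 uM beta-hydroxybutyryl CoA and 1 mM NAD+. Recombinant His-tagged enzyme, 20 nM, pH 9.0 Tris buffer, 15 min compound preincubation.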
* marks the source's active call; other numbers are inactive results; ? = inconclusive; [ ] = another dose, or the depositor's remark. % is set by controls: 0 for no effect and ±100 for the full control effect; potency is the fitted concentration of half-maximal effect.

item | smiles | HSD17B inhib
1 | CCCNS(=O)(=O)c1ccc(CCC(=O)NCc2ccc3c(c2)OCO3)cc1 | -1.2%
2 | Nc1nc(SCc2ccccc2)ns1 | 11.4%
3 | O=S(=O)(NCCN1CCCC1)c1cccc2cccnc12 | 2.0%
4 | CCc1ccc(S(=O)(=O)NCc2cn3ccccc3n2)s1 | -5.9%
5 | COc1ccc(NC(=O)N2CC[C@@]3(CCCN(C(C)=O)C3)C2)cc1 | 1.6%
6 | c1ccc2c(CC3NCCN3)cccc2c1 | 1.4%[11.4 µM]
7 | Cc1ccc(NC(=O)CCN2C(=O)c3ccncc3C2=O)cc1 | 4.0%
8 | O=C(c1ccncc1)N1CCC2(CC1)CCN(c1ccc(-c3ccccc3)cc1)CC2 | -12.7%
9 | CN=C1SC(CC(=O)Nc2cccc(C(F)(F)F)c2)C(=O)N1C (centres undefined) | -3.9%
10 | Cc1csc2nc(CNC(=O)CCC(=O)O)cn12 | 8.2%
11 | CC(C)(C)NC(=O)NC(=O)COC(=O)c1ccco1 | 18.9%
12 | N#Cc1ccc2ccn(CC(=O)NC3CCCCCC3)c2c1 | 31.6µM*
13 | COc1cc2cc(C(c3nnnn3C3CCCC3)N3CCc4ccccc43)c(=O)[nH]c2cc1OC (centres undefined) | 15.8µM*
14 | CCC(C)N(CC(=O)NCc1ccc(OC)cc1)C(=O)c1csnn1 (centres undefined) | ?
15 | O=S(=O)(NCc1ccco1)c1cccc(S(=O)(=O)N2CCOCC2)c1 | -3.2%
16 | COc1cccc(OCC(=O)N(Cc2nc(-c3ccc(Cl)cc3)no2)C(C)C)c1 | 1.2%
17 | COc1ccc(S(=O)(=O)N(CC(=O)N2CCCC2)Cc2ccccc2)cc1 | 5.6%
18 | CCOC(=O)CCCNS(=O)(=O)c1c(C)ccc2nsnc12 | 7.9%
19 | Cc1ccc(S(=O)(=O)N(c2ccccc2)C2CCS(=O)(=O)C2)cc1 (centres undefined) | 6.3%
20 | C(#Cc1ccc(C#CCN2CCOCC2)cc1)CN1CCOCC1 | -3.3%

Brought forward from above: four entries; new compounds follow.
item | smiles | HSD17B inhib
17 | COc1ccc(S(=O)(=O)N(CC(=O)N2CCCC2)Cc2ccccc2)cc1 | 5.6%
18 | CCOC(=O)CCCNS(=O)(=O)c1c(C)ccc2nsnc12 | 7.9%
19 | Cc1ccc(S(=O)(=O)N(c2ccccc2)C2CCS(=O)(=O)C2)cc1 (centres undefined) | 6.3%
20 | C(#Cc1ccc(C#CCN2CCOCC2)cc1)CN1CCOCC1 | -3.3%
21 | Cc1cccc(OCC(=O)N2CCN(C(=O)c3cccs3)CC2)c1 | 5.3%
22 | CCC(C)SCc1nc2ccccc2[nH]1 (centres undefined) | -5.7%
23 | Cc1cnc(CNc2ncnc3ccc(-c4ccccc4C#N)cc23)cn1 | -8.6%
24 | CCOC(=O)Nc1cccc(OCC(=O)Nc2ccccc2OC)c1 | -0.5%
25 | CCOCCCN(C(=O)CNC(=O)c1ccco1)C(C(=O)NC1CCCC1)c1ccccc1C (centres undefined) | -2.6%
26 | CS(=O)(=O)N(CC(=O)NC1CC2CCC1C2)c1cccc(C(F)(F)F)c1 (centres undefined) | 16.0%
27 | CCOc1ccc(C2CC(c3cccc(C)c3)n3ncnc3N2)cc1 (centres undefined) | -1.2%
28 | O=C(NC[C@@H](O)CO)c1c(I)c(C(=O)NC[C@@H](O)CO)c(I)c(N(CCO)C(=O)CO)c1I | -10.4%[25.6 µM]
29 | CS(=O)(=O)N1CCC[C@@]2(CCN(Cc3nccs3)C2)C1 | 0.0%
30 | COc1cccc(-n2nnc3c(=O)n(CC(=O)OCc4ccccc4)cnc32)c1 | 0.5%
31 | Cc1cc2n(n1)C(c1ccccc1Cl)Nc1ccccc1-2 (centres undefined) | ?
32 | Cc1cc(NC(=O)c2cc(-c3ccco3)on2)no1 | -3.4%
33 | CCCCNC(=O)NS(=O)(=O)c1ccc(C)cc1 | 5.4%
34 | CC1CCC2(CC1)NC(=O)c1ccccc1O2 (centres undefined) | -1.3%
35 | CCCc1[nH]nc2c1C(CCC)C(C#N)=C(N)O2 (centres undefined) | -23.7%
36 | CCCCN(C)S(=O)(=O)c1ccc(C(=O)Nc2nnc(-c3cccs3)o2)cc1 | -0.6%
37 | Nc1ccc(CCS(N)(=O)=O)cc1 | -2.7%
38 | O=C(NCCCN1CCCC1=O)c1ccc2c(=O)n(Cc3ccco3)c(=S)[nH]c2c1 | -9.8%
39 | CN(C)CCCNC(=O)c1ccc2[nH]c3ccccc3c2c1 | 20µM*
40 | Cc1cnc(CNc2cc(-c3ccccc3C(F)(F)F)ncn2)cn1 | -0.6%

A section from further up, as a working copy:
item | smiles | HSD17B inhib
38 | O=C(NCCCN1CCCC1=O)c1ccc2c(=O)n(Cc3ccco3)c(=S)[nH]c2c1 | -9.8%
39 | CN(C)CCCNC(=O)c1ccc2[nH]c3ccccc3c2c1 | 20µM*
40 | Cc1cnc(CNc2cc(-c3ccccc3C(F)(F)F)ncn2)cn1 | -0.6%

Additional records:
item | smiles | HSD17B inhib
41 | COc1ccccc1NC(=O)CN1CCN(CC(=O)Nc2ccc(F)cc2)CC1 | -1.0%
42 | COc1cccc(C(=O)N2CCN(Cc3ccc4c(c3)OCO4)CC2)c1OC | 11.0%
43 | Cc1ccccc1OC1C=CC(c2ccccc2)OC1CO (centres undefined) | 3.2%[11.4 µM]
44 | COc1ccc(N(CC(=O)N2CCN(c3ccccc3)CC2)S(=O)(=O)c2c(C)noc2C)cc1 | -0.7%
45 | Cc1ccccc1Cn1c(C(C)O)nc2ccccc21 (centres undefined) | -1.3%
46 | Cc1ccc(CC2CC(=O)N(c3ccc(Cl)cn3)C2=O)cc1 (centres undefined) | 12.7%
47 | COC(=O)c1cnc2c(C(F)(F)F)cccc2c1OC | 6.0%
48 | Cc1ccc(CNC(=O)CN(C)S(=O)(=O)c2cccc3nsnc23)cc1 | 6.7%
49 | O=C(NC1CCCCC1)N(Cc1nc2ccccc2c(=O)[nH]1)C1CCCC1 | -3.6%
50 | CC(C)(C)NC(=O)CSc1nc(O)cc(=O)n1-c1ccccc1F | -7.0%
51 | CC(=O)n1cc(Nc2ccccc2C(=O)O)c2ccccc21 | 25.1µM*
52 | CCOc1ccc(NC(=O)c2ccncc2)cc1 | -0.4%
53 | CCOc1ccc(C(=O)N2CCCN(C(=O)c3ccc(OCC)cc3)CC2)cc1 | -8.8%
54 | CCn1cc(SCC(=O)NCc2ccc3c(c2)OCO3)c2ccccc21 | -7.7%
55 | CC(C)C(=O)Nc1nnc(Cc2ccccc2)s1 | 5.3%
56 | CCOC(=O)C1CCN(CC(=O)c2c(C)[nH]c3cc(C)ccc23)CC1 | -1.4%
57 | O=C1Nc2ccccc2C(O)(C(=O)NC2CC2)N1c1ccc(Cl)c(Cl)c1 (centres undefined) | 11.0%
58 | Clc1ccc(Cl)c(SCCCN2CCNCC2)c1 | -1.0%[11.4 µM]
59 | CCOC(=O)N1CCC(Nc2ncnc3c2cnn3-c2ccccc2)CC1 | 25.1µM*
60 | Nc1ccc(F)cc1F | 1.0%
61 | Cc1ccc2cc(CN(CCN3CCCC3)C(=O)Nc3ccccc3)c(=O)[nH]c2c1C | -1.6%
62 | CCc1nnc(NC(=O)c2nc3nccc(C)n3n2)s1 | -3.0%
63 | CCOC(=O)c1ccc(CNC(=O)CCC(=O)O)cc1 | -6.6%
64 | Cc1ccc(S(=O)(=O)NC(CC(=O)N2CCc3ccccc32)c2ccco2)cc1 (centres undefined) | -17.7%
65 | CCCC(=O)Nc1ccc(NC(=O)c2ccccn2)cn1 | -0.2%
66 | O=C(CCNc1ccccc1)c1ccc2c(c1)OCO2 | -6.6%
67 | Cc1nc2ncccn2c1-c1csc(NCc2ccco2)n1 | -24.6%
68 | O=C(CSc1nc(-c2ccco2)cc(C(F)(F)F)n1)Nc1cccnc1 | -13.9%
69 | O=S(=O)(c1ccc(Cl)c(Cl)c1)N1CCc2nc3ccccc3n2CC1 | 5.9%
70 | Cc1ccc(-c2ccc(SCC(=O)Nc3nonc3C)nn2)cc1 | 1.0%
71 | CCOC(=O)C1CCCN(c2c(N3CCC(N4CCCCC4)CC3)c(=O)c2=O)C1 (centres undefined) | 8.4%
72 | Cc1ccc(Nc2cc(C)nc3ncnn23)c(Cl)c1 | 7.5%
73 | CCOc1cc(CC(=O)N[C@@H](CC(C)C)c2ccccc2N2CCCCC2)ccc1C(=O)O | 1.0%[25.6 µM]
74 | O=C(CSc1ccc2nnc(-c3ccncc3)n2n1)Nc1ccc2c(c1)OCO2 | -2.1%
75 | Cc1cc(C)c2c(c1)-c1cc(C)nn1C(c1ccc3c(c1)OCO3)N2 (centres undefined) | 25.1µM*
76 | COC(=O)N1CCC2(CCCN(Cc3ccc(C#N)cc3)C2)CC1 | 1.7%
77 | COC(=O)c1cccc(C23CC4(C2)[C@H](CN(Cc2ccc(-c5ccccc5)cc2)[C@@H]4c2ccccc2)C3c2ccc(Cl)nc2)c1 (some centres undefined) | -8.6%
78 | Cc1oc(-c2ccccc2)[n+]([O-])c1C | -8.7%
79 | CCC(=O)N1CCN(c2ccccc2NC(=O)Cc2ccc(Cl)cc2)CC1 | -0.2%
80 | CCS(=O)(=O)N1CCC(C(=O)NCc2ccccn2)CC1 | 3.9%
81 | CCCCOC(=O)Nc1ccc(OC)cc1S(=O)(=O)N1CCOCC1 | -0.4%
82 | O=C1CC(c2ccc(O)cc2)Oc2ccccc21 (centres undefined) | -8.9%
83 | Cc1ccccc1-n1c(=O)c2ccccc2n2nnnc12 | -2.4%
84 | O=C(NCc1ccc2c(c1)OCO2)c1ccc(S(=O)(=O)NCC2CCCO2)cc1 (centres undefined) | -5.0%
85 | COc1ccccc1N1CC(C(=O)OC(C)C(=O)N2CCCc3ccccc32)CC1=O (centres undefined) | 3.1%
86 | CCS(=O)(=O)NCCc1ccc(OC)c(OC)c1 | 11.8%
87 | Cn1cc(C(=O)NC2CCCCCC2)c(=O)c2cc(S(=O)(=O)N3CCCC3)ccc21 | 7.6%
88 | COc1ccc(-n2c3c(cc(C(=O)N4CCN(CCO)CC4)c2=O)C(=O)CC(C)(C)C3)cc1 | -14.1%
89 | COc1ccc(CC(=O)OCC(=O)NC(=O)NC2CCCCC2)cc1 | -1.5%
90 | COc1ccc(OC)c(C(=O)COC(=O)CNC(=O)C2CCCCC2)c1 | ?
91 | CC(C(=O)NC1CCCCCC1)N(c1ccccc1)S(C)(=O)=O (centres undefined) | 13.1%
92 | COc1ccc(NC(=O)c2ccco2)cc1NC(=O)c1ccco1 | 4.2%
93 | CC(C)=CCC/C(C)=C/COc1ccc2ccc(=O)oc2c1 | 31.6µM*
94 | COc1cc(NC(=O)C(C)Oc2ccccc2)cc(OC)c1 (centres undefined) | 6.9%
95 | Cc1c2cnn(CC(=O)N3CCN(c4ncccn4)CC3)c(=O)c2c(C)n1Cc1ccc(F)cc1 | -15.3%
96 | CCOC(=O)c1nc(S(C)(=O)=O)ncc1Cl | 5.8%
97 | O=C(c1cccs1)N1CCC(c2nc3c(nnn3Cc3ccccc3)c(=O)[nH]2)CC1 | 1.7%
98 | CCOC(=O)NC1(C(F)(F)F)C(=O)N(Cc2ccccn2)C2=C1C(=O)CC(C)(C)C2 (centres undefined) | 3.4%
99 | O=S(=O)(Cc1ccccc1Cl)N1CCN(Cc2ccc3c(c2)OCO3)CC1 | 5.2%
100 | Cn1c2c(c(=O)n(C)c1=O)C(c1cccc(Br)c1)C1C(=O)c3ccccc3C1=N2 (centres undefined) | 1.9%

New compounds follow:
item | smiles | HSD17B inhib
101 | O=C(Nc1ccc(-c2nc3ncccc3o2)cc1)c1ccco1 | 20µM*
102 | COc1ccc2cc3cc(C(=O)NCCc4ccc(OC)c(OC)c4)oc3nc2c1 | 12.6µM*
103 | CCOC(=O)Cc1csc(NC(NC(=O)CC)(C(F)(F)F)C(F)(F)F)n1 | 1.3%
104 | COC1CCCCC1Nc1cccc(SC)c1 (centres undefined) | -0.4%
105 | Cc1ccc(S(=O)(=O)NC2CCOC(C)(C)C2)cc1 (centres undefined) | 6.0%
106 | COc1cccc(CNn2cnnc2)c1OCc1ccccc1F | 8.0%
107 | Cc1ccc(N(CC(=O)NCc2ccco2)S(=O)(=O)c2ccccc2)cc1 | -5.3%
108 | Cc1ccc(S(=O)(=O)Nc2ccccc2CNc2c(C)n(C)n(-c3ccccc3)c2=O)cc1 | 9.0%
109 | CCC1=C(OC(=O)N(CC)CC)N2C(=O)OC(=NCC3CC3)[C@]2(C)[C@H]2C1=CC[C@H]1C(=O)N(CC(=O)OC)C(=O)[C@H]12 | -1.9%
110 | O=c1c(CCc2ccccc2)nc2cnc(Oc3ccccc3)nc2n1C1CC1 | -2.9%
111 | COc1ccc(C(=O)CSc2nnc(-c3cccnc3)n2Cc2ccco2)cc1 | -3.4%
112 | CCOc1ccc(C(=O)OCc2nnc(-c3cccs3)o2)cc1OC | 4.1%
113 | Cc1cc(NC(=O)Nc2cccs2)no1 | -11.8%
114 | COC(=O)Cc1c(C)nc2nc[nH]n2c1=O | 6.7%
115 | O=C(NCc1ccc2c(c1)OCO2)c1nnc(Cc2ccc(F)cc2)o1 | 2.7%
116 | CCN(CC)C(=O)CSc1nc2ncc(Br)cc2[nH]1 | 1.0%
117 | CCOc1ccc(N2CC(C(=O)OC)CC2=O)cc1 (centres undefined) | 9.9%
118 | Cc1c(NC(=O)C(C)OC(=O)C(NC(=O)c2ccco2)C(C)C)c(=O)n(-c2ccccc2)n1C (centres undefined) | 4.7%
119 | COc1ccc(NC(=O)Nc2cccc3cccnc23)cc1 | -0.6%
120 | CC(C)(C)NC(=O)C(c1ccncc1)N(Cc1cccs1)C(=O)Cn1nnc(-c2cccs2)n1 (centres undefined) | -9.6%

Values by screen from the entries so far.
Compounds 110–120 in HSD17B inhib read -2.9%, -3.4%, 4.1%, -11.8%, 6.7%, 2.7%, 1.0%, 9.9%, 4.7%, -0.6%, -9.6%

Not all compounds are listed; count on the stated rates, not on these rows.
